# Vaccinia mCherry: qHTS for Stage-Specific Inhibitors of Vaccinia Orthopoxvirus: mCherry Reporter Primary qHTS | 310,000 compounds, 0.63% hits | Potency, µM (highest dose often 36.5 µM), without a hit: at the top dose activity change, negative = inhibition, actives largely listed as inhibitors | Vaccinia virus mCherry reporter infection, fluorescence; about a quarter of the inactives have no number; active = well fitted inhibition curve with a large enough effect; inconclusive = small, poorly fitted or top-dose-only effect; inactive = no such curve, though single readings can be large or run the other way; tested in A549 cells; note: nearly all actives have a fitted effect of over 35% in size; inactives centre near -10
# VACV Venus inh: qHTS for Stage-Specific Inhibitors of Vaccinia Orthopoxvirus: Venus Reporter Primary qHTS; Vaccinia virus Venus reporter expression, fluorescence; Potency, µM (highest dose often 36.5 µM), for the others: at the highest dose activity change, negative = inhibition, most hits filed as inhibitors; 330,000 compounds, 0.46% hits; AID 720580, 2013; active means well fitted inhibition curve with a large enough effect; inconclusive means small, poorly fitted or top-dose-only effect; inactive means no such curve, though single readings can be large or run the other way; tested in A549 cells; note: nearly all actives have a fitted effect of over 30% in size; inactives centre near -10
# * marks the source's active call; other numbers are inactive results; i = inactive; ? = inconclusive; · = not tested or not shown; [ ] = another dose, or the depositor's remark. % is set by controls: 0 for no effect and ±100 for the full control effect; potency is the fitted concentration of half-maximal effect. Not a hit list, and some 0.87% of all compounds hit somewhere here.
SMILES,Vaccinia mCherry,VACV Venus inh
CSCCC(N=C1NS(=O)(=O)c2ccccc21)C(=O)NCc1ccccc1F (configuration not stated),-12%,-4%
N#Cc1nc(Cc2ccccc2)oc1N1CCC(C(N)=O)CC1,·,-7%
CC1CCN(C(=O)CSc2c3c(nc4cc(Cl)ccc24)CCCC3)CC1,-6%,-2%
C=CCOc1ccc(/C=C2\SC(=Nc3cccnc3)NC2=O)cc1,i,35%[activator]
COc1ccc(NC(=O)CCc2nc3cccnc3n2-c2ccccc2)c(OC)c1,-9%,-14%
Cc1ccc(NC(=O)Nc2ccc3c(c2)CCC3)c(C)c1,-7%,-7%
Cc1ccc(C(=O)Oc2coc(CSc3nnc(NC(=O)c4cccs4)s3)cc2=O)cc1C,-12%,-5%
CC(C)COc1cc(=O)[nH]c(SCC(C)C)n1,-25%,?
O=C(NC(=S)Nc1ccc2c(c1)OCCO2)c1ccccc1F,?,-21%
Cc1nn(CC(=O)N2CCN(c3ccccc3F)CC2)c(=O)c2cccn12,0%,-7%
CCCN(C(=O)Cn1nc(C)c([N+](=O)[O-])c1C)c1c(N)n(Cc2ccccc2)c(=O)[nH]c1=O,i,-9%
COc1ccc(C2N(C(=O)N(C)C)CCN2S(=O)(=O)c2ccc(OC)cc2)cc1 (configuration not stated),-9%,-3%
CCN(CC(=O)Nc1ccc2c(c1)OCCO2)C(=O)/C=C/c1cccc(Br)c1,-8%,-18%
O=C(CCC(=O)N(CC(=O)NC1CCCCC1)CC1CCCO1)Nc1nccs1 (configuration not stated),i,-5%
COc1ccccc1N1CCN(C(=O)c2ccc3c(c2)N(Cc2ccccc2)C(=O)c2ccccc2S3(=O)=O)CC1,-15%,-14%
O=C(Cc1ccccc1)N1CCN(CC2CC=CCC2)CC1 (configuration not stated),-1%,-14%
Cn1cccc1C(=O)OCC(=O)NCc1cccs1,-13%,-2%
CCN(CC)c1ncnc2sc(C(=O)N3CCN(c4ccc(OC)cc4)CC3)c(C)c12,·,-21%
O=c1c2ccccc2cnn1-c1ccc(Br)cc1,·,-7%
CCCCNC(=O)c1onc(CSc2cccc(F)c2)c1C(=O)O,i,-5%
CN1CCC(NC(=O)c2cc(-c3cccc(Br)c3)nc3ccccc23)CC1,-1%,-21%
OCC[C@@H]1C[C@H](O)[C@@H](O)[C@]2(OCc3cc(Cl)ccc32)O1,i,6%
CC1OC(NCCc2ccccc2)C(O)C(O)C1O (configuration not stated),-10%,-4%
Cn1nccc1C(=O)NC1CCN(Cc2ccccc2)CC1,-4%,-11%
CCOc1cccc(C2C(C(=O)c3cccs3)=C(O)C(=O)N2Cc2cccnc2)c1 (configuration not stated),-7%,-4%
CCOC(=O)N1CCN(c2c(NCCc3ccccc3)c(=O)c2=O)CC1,i,-2%
CNC(=O)Oc1ccccc1C1CCCCC1,-11%,-6%
Cc1cc(C)n2c(SCC(=O)Nc3cc(S(=O)(=O)N(C)C)ccc3C)nnc2n1,-3%,-11%
COC(=O)c1nc2cc(C)ccn2c1F,i,-12%
CN(CC(=O)Nc1c(Cl)cccc1Cl)C(=O)c1cccc(S(=O)(=O)NCc2ccccc2)c1,-17%,-7%

# Three records drawn at random from the list so far, as already listed:
SMILES,Vaccinia mCherry,VACV Venus inh
Cn1nccc1C(=O)NC1CCN(Cc2ccccc2)CC1,-4%,-11%
CCOC(=O)N1CCN(c2c(NCCc3ccccc3)c(=O)c2=O)CC1,i,-2%
CNC(=O)Oc1ccccc1C1CCCCC1,-11%,-6%

# Next part.
SMILES,Vaccinia mCherry,VACV Venus inh
COc1ccccc1NC(=O)CN(Cc1ccccc1)S(C)(=O)=O,-17%,-7%
O=C(CSc1nnc(-c2ccccn2)o1)Nc1ccccc1,-17%,-12%
O=C(Nc1sc2c(c1C(=O)Nc1ccc(Cl)cc1)CCCC2)c1cccs1,13µM*,?
Cc1cccn2c(=O)c3cc(C(=O)NCCN4CCOCC4)c(=N)n(CCc4ccccc4)c3nc12,-8%,-1%
CC(=O)N1CCc2cc(S(=O)(=O)NCCC(=O)Nc3cccc(C)c3)ccc21,-4%,-2%
CCO[C@@H]1OC(C(=O)N2CCCCCCC2)=C[C@H](c2ccc3c(c2)OCO3)[C@H]1CCCO,-30%,-15%
CCOC(=O)c1cc(-c2cccc(C(F)(F)F)c2)nc2nc(SC)[nH]c(=O)c12,-21%,-14%
CSC1=NSC2=NC(=O)/C(=C\c3coc4ccccc4c3=O)C(=N)N12,-15%,12%
Nc1nc(COc2ccc(F)cc2Cl)nc(N2CCCCC2)n1,-12%,-6%
CCOc1ccccc1NC(=O)Cn1cnc2c(nnn2-c2cccc(OC)c2)c1=O,-3%,4%
COC(C[C@@H]1O[C@H]1[C@@H](O)[C@@H](C)OCc1ccccc1)OC,i,-3%
CCOC(=O)N1C2=NC(C(=O)OC)=C(C(=O)OC)[C@@H]3N(C)c4ccccc4[C@]23C[C@H]1C(=O)OC,-14%,-18%
CC(C)N(CCCNC(=O)C1CCN(S(=O)(=O)N2CCOCC2)CC1)Cc1ccccc1,·,-9%
Cc1cc(-c2ccccc2)n(-c2cc(N/N=C/c3ccccc3O)ncn2)n1,?,?
COCCCn1c(SCC(=O)NNC(=O)c2cccc(O)c2)nnc1-c1ccncc1,i,-8%
COC(=O)CNC(c1ccccc1)c1cc(Br)ccc1NS(=O)(=O)c1ccc(C)cc1 (configuration not stated),-6%,-17%
CCOC(=O)c1sc(N)nc1C(F)(F)F,-12%,1%
CC(C)Nc1nc2c(-c3cccc(Br)c3)nnn2c2ccccc12,-3%,1%
CS(=O)(=O)c1nc2c(cc1C#N)CCCC2,-7%,-10%
O=C(C[n+]1cccc(C(=O)Nc2ccccc2)c1)c1ccc([N+](=O)[O-])cc1,-26%,-3%
N#Cc1c(N)nc(SCc2ccncc2)c(C#N)c1-c1cccs1,?,?
Cc1ccc(-c2nc3c(Cl)cc(Cl)cc3c(=O)n2O)cc1,?,?
COc1ccc(NC(=O)CCCNC(=O)Cn2cnc3sc(C)c(C)c3c2=O)cc1OC,-7%,-3%
CCOC(=O)N1CCC(NC(=O)CCc2ccccc2)CC1,-16%,-9%
C/C(N)=C(/C#N)C(=O)CSc1nc2ccccc2n1CC(C)C,-14%,-15%
O=C(NCc1ccco1)c1cccc(N2CCCC2=O)c1,-10%,-7%
CCN(CC)C(=O)c1sc2c(c1C)c(=O)n(Cc1ccccc1)c(=O)n2Cc1ccccc1C,-24%,-19%
COc1ccc(CNC(=O)c2ccc(Br)s2)cc1OC,-9%,-15%
CCN1C(=O)CC(N2CCOCC2)C1=O (configuration not stated),-13%,-15%
Cc1c(C(=O)NCC(C)C)sc2ncnc(NCC3CCCO3)c12 (configuration not stated),-11%,-1%

# Compounds above that have a CF3 group (2):
SMILES,Vaccinia mCherry,VACV Venus inh
CCOC(=O)c1cc(-c2cccc(C(F)(F)F)c2)nc2nc(SC)[nH]c(=O)c12,-21%,-14%
CCOC(=O)c1sc(N)nc1C(F)(F)F,-12%,1%

# Remaining list, next part:
SMILES,Vaccinia mCherry,VACV Venus inh
OCCCn1c(CCNc2nc(-c3ccc(Cl)cc3)cs2)nc2cc(C(F)(F)F)ccc21,?,-21%
S=C(SSC(=S)N1CCOCC1)N1CCOCC1,10%,-14%
COc1ccc(OC)c(CN2C(=O)CSCC2(C)C(=O)NC(C)C)c1 (configuration not stated),-9%,-4%
CCOC(=O)C[N+](CC)(CC)CC#Cc1ccccc1,-5%,-12%
Cc1nc2cc(NC(=O)NCc3ccccc3)ccc2o1,-4%,-4%
O=C(c1nc2nc(-c3cccs3)cc(C(F)(F)F)n2n1)N1CCN(Cc2ccccc2)CC1,·,-25%
CN(C)c1ccc(CN(C(=O)c2ccco2)C2CCS(=O)(=O)C2)cc1 (configuration not stated),-4%,0%
Cc1ccc(NC(=O)CN2CCCC2)c2c1CC(C)(C)O2,-4%,-11%
COc1cc(C(=O)NNC(=S)NC(=O)c2ccc(F)cc2)cc(OC)c1OC,?,11%
O=C(NCc1cccc(Cl)c1)C1CCCN(c2ncnc3onc(-c4ccc(F)cc4)c23)C1 (configuration not stated),-5%,-11%
Cc1c(C(=O)C(=O)N2CCOCC2)c2ccccc2n1Cc1ccccc1,-11%,-6%
COc1ccc2c(c1OC)C(=O)OC2CC(=O)c1ccc2c(c1)OCO2 (configuration not stated),-4%,-12%
Cc1cnc(NC(=O)CCNC(=O)c2ccccc2Cl)s1,-3%,-4%
O=C(Nc1nc2cc3c(cc2s1)OCO3)c1ccc(N2C(=O)CCC2=O)cc1,-9%,1%
CCOC(=O)c1cc2sc(C)cc2n1CC(=O)Nc1cccc(C)c1C,-19%,-11%

# In a second layout: entries from further up
structure | Vaccinia mCherry | VACV Venus inh
COc1cc(C(=O)NNC(=S)NC(=O)c2ccc(F)cc2)cc(OC)c1OC | ? | 11%
COc1ccc2c(c1OC)C(=O)OC2CC(=O)c1ccc2c(c1)OCO2 (configuration not stated) | -4% | -12%
Cc1cnc(NC(=O)CCNC(=O)c2ccccc2Cl)s1 | -3% | -4%
S=C(SSC(=S)N1CCOCC1)N1CCOCC1 | 10% | -14%

# Other records follow.
SMILES,Vaccinia mCherry,VACV Venus inh
CCC1S/C(=C(\C#N)C(=O)NCc2ccco2)N(c2ccc(F)cc2)C1=O (configuration not stated),·,12%
CCN1CCCC1CNCc1ccc(Cl)cc1Cl (configuration not stated),-13%,-12%
O=C(CN1CCN(Cc2ccc(Cl)cc2)C1=O)NCCN1CCCC1,i,-7%
O=C(Cc1cccc(NC(=O)C2CCN(C(=O)c3ccccc3)CC2)c1)Nc1cccc(C(=O)N2CCCC2)c1,i,-3%
O=C(NCc1ccccc1)NC1(C(=O)N2CCCC2)CCCCC1,-14%,-6%
C[C@@H]1CN([C@H](C)CO)C(=O)c2cc(-c3ccc(F)cc3)cnc2O[C@H]1CN(C)C(=O)c1ccc(F)cc1,-15%,-23%
COc1ccc(CNC(=O)C2CSC(c3ccc(OC)cc3)N2C(C)=O)cc1 (configuration not stated),4%,2%
COc1ccccc1OCc1nnc(SCC(=O)Nc2nnc(C3CC3)s2)n1C,i,-10%
CC(=O)Nc1ccc(NC(=O)C(C)Oc2ccc(C)nc2[N+](=O)[O-])cc1 (configuration not stated),-9%,-5%
OCC1OC(c2ccccc2)OC2COC(c3ccccc3)OC12 (configuration not stated),-13%,0%
O=C(O)CCC(=O)N1N=C(c2ccccc2)CC1c1ccc(Br)cc1 (configuration not stated),-20%,-7%
O=C(Nc1cccnc1)C1COc2ccccc2O1 (configuration not stated),-15%,-2%
C=C(C)C(=O)Oc1ccc(N2C(=O)[C@@H]3C4C=CC(C4)[C@@H]3C2=O)cc1,-16%,-18%
COC(=O)[C@@H]1C[C@H](NC(=O)c2ccccn2)CN1Cc1cccc2ccccc12,-4%,5%
COc1cc(-n2c(=O)c3ccccc3n(CC(=O)c3ccccc3)c2=O)cc(OC)c1OC,-12%,-10%
Cc1ccc(OC(=O)c2cc3ccccc3o2)cc1,·,-6%
Nc1ncnc2c1ncn2[C@@H]1O[C@H](C(=O)N2CCCN(Cc3ccccc3F)CC2)[C@@H](O)[C@H]1O,9%,-1%
CC(C)c1ccc(OC(=O)c2cccc(S(=O)(=O)N3CCN(C)CC3)c2)cc1,-2%,-10%
CCOc1c(S(=O)(=O)NC2CC(C)(C)NC(C)(C)C2)ccc(Cl)c1Cl,-23%,-18%
Cc1ccccc1Nc1cc(C(=O)NC2CCCC2)c2ccccc2n1,1%,-9%
COc1cc(OC)cc(C(=O)N[C@H](C(=O)Nc2nnc(C3CC3)s2)C(C)C)c1,i,-15%
COc1ccc(-n2c(=S)[nH]c3cc(C(=O)N4CCN(c5ccccc5)CC4)ccc3c2=O)c(OC)c1,i,6%
CCOC(=O)COc1ccc(N)cc1CC(NC(C)=O)(C(=O)OCC)C(=O)OCC,-13%,-14%
O=S(=O)(c1ccc(F)cc1)N1CCN(C(=S)NCCc2ccccc2)CC1,-15%,-15%
Cc1cccc(Nc2nc(NCCCN3CCOCC3)nc(N)c2[N+](=O)[O-])c1,?,?
Cc1nc(CCNC(=O)CC2C(=O)NCCN2Cc2ccc(F)cc2)sc1C (configuration not stated),i,-3%
CC(C)Sc1nc2c(cnn2-c2ccc(F)cc2)c(=O)[nH]1,-3%,?
O=C(c1cc2ccccc2o1)N(C1CC1)C1(C(=O)Nc2ccccc2)CCCC1,-12%,-7%
O=C(CSc1nc2cc(Cl)c(Cl)cc2[nH]1)c1ccc2c(c1)OCO2,?,?
Cc1ccc(Cl)cc1N1CCN(C(=O)c2cc(S(=O)(=O)N3CCC(C)CC3)cn2C)CC1,-15%,?

# Taken from above.
# Vaccinia mCherry result of OCC1OC(c2ccccc2)OC2COC(c3ccccc3)OC12 (configuration not stated) → -13%
# Vaccinia mCherry result of COc1ccc(CNC(=O)c2ccc(Br)s2)cc1OC → -9%

# Carrying on.
SMILES,Vaccinia mCherry,VACV Venus inh
COc1ccc(-c2nnc(SCC(=O)NCc3ccc(C)cc3)nc2-c2ccc(OC)c(OC)c2)cc1OC,-18%,?
CCCCn1c(=O)[nH]c(=O)c2c1nc(-c1ccccc1F)n2Cc1ccccc1OC,-8%,-23%
Cc1cc(C)nc(SC2CC(=O)N(c3ccc(Cl)cc3)C2=O)n1 (configuration not stated),-1%,-11%
COc1cc(NC(=O)COc2ccc(Br)cc2)ccc1NC(=O)C(C)C,-23%,-14%
Cc1ccc(SC(C)C(=O)Nc2ccccc2-c2ccccc2)cc1 (configuration not stated),-20%,-19%
Cn1cc(CCCC(=O)NCc2ccccc2Cl)c2ccccc21,-9%,-10%
COc1ccc(CC(=O)Nc2ccc(N3CCCCC3)cc2)cc1,-9%,-8%
